Marburg entry inh – blocks Marburg virus binding to or entry into cells | Marburg virus pseudotyped entry inhibition, cell reporter; control for the full effect not named in the record; about a third of the inactives were read at about 46 µM | Potency, µM (series often up to 37.8 µM), without a hit: at the highest dose activity change, negative = inhibition, usual class: inhibitors | 300,000 compounds, 1.8% hits; active = well fitted inhibition curve with a large enough effect; inconclusive = small, poorly fitted or top-dose-only effect, or effect the other way; inactive = flat fitted curve, though single readings scatter; tested in HEK293 cells; about a fifth of its hits are not listed in these tables; further: luciferase read-out
The depositor's hits bear a star; ? = inconclusive; & = joins results of further samples; [ ] = another dose, or the depositor's remark. On the % scale 0 is the no-effect control and ±100 the full control effect; potency means the concentration at half of the fitted maximal effect.

SMILES	Marburg entry inh
CC(=O)C1=CN(CCC=Cc2ccccc2)C(=O)NC1c1ccccc1 (stereo not drawn)	?
COC(=O)c1ccccc1NC(=O)[C@H]1COc2ccccc2O1	-31.9%
Cc1cccc(N2C(=O)C[C@@H](N3CCN(Cc4ccc(Cl)cc4)CC3)C2=O)c1	-3.2%
CC(=O)OC[C@@H]1O[C@H](CCO/N=C(\C)CCN2CCc3nc(-c4ccccc4)c(-c4ccccc4)cc3C2)C=C[C@@H]1OC(C)=O	?
COc1ccc(O[C@H]2C=C[C@@H](c3ccccc3)O[C@H]2COC(=O)CC/C(C)=N\OC[C@@H](O)COCc2ccco2)cc1	9.9%[14.2 µM]
COC(=O)C1(C(=O)OC)CC(CO)C(=O)[C@@H]1c1ccccc1 (stereo partly drawn)	-8.4%[14.2 µM]
CCN1C2=C(C=C/C1=C1\C(=O)N(C)C(=S)N1C1CCCCC1)CCCC2	1.8%[46.1 µM]
Nc1ccccc1C(=O)/C=C\c1ccc2c(c1)OCO2	?
CC(C)COc1ccc(C(=O)N[C@@H](CC(C)C)C(=O)O)cc1	26.8%
COC1=C[C@H](C(=O)NCc2ccc(Br)cc2)C(C)C(c2ccccc2)CC1=O (stereo partly drawn)	15.3%[14.2 µM]
CN1C(=O)COC2CCC(C(=O)C3=C(C(=O)O)CCCC3)CC21 (stereo not drawn)	11.3%
CNC(=O)C[C@H](C(=O)O)c1ccc(OC(C)C)cc1	-6.9%
CC(=O)OC[C@H]1O[C@H](C#Cc2ccccc2Cl)C=C[C@@H]1OC(C)=O	-1.2%[14.2 µM]
C=CC[C@@](C(C)=O)(C(=O)OC)[C@@H](NC(=O)OC)c1ccccc1	-3.0%[14.2 µM]
COC1=CC2C(=O)C([C@@H]3c4ccccc4C[C@]23C)C1(O)c1cccc(OC)c1 (stereo partly drawn)	4.4%[14.2 µM]
COC(=O)C(C(C)=O)[C@@H](NC(=O)NCc1ccccc1)c1ccccc1 (stereo partly drawn)	25.3%[14.2 µM]
CCOC(=O)[C@H]1CCCN(c2nc3ccccc3nc2[C@@H](C#N)C(=O)O[C@@H](C)COC)C1	-1.9%
COc1ccc(COC(=O)N/N=C2/C[C@@H](O)[C@@H](O)[C@@H]3[C@@H]4C(=O)N(c5cccc(Oc6ccccc6)c5)C(=O)[C@H]4CC[C@@H]23)cc1	9.0%[14.2 µM]
O=C(C1CCCCC1)N1C[C@H](O)[C@H](n2cc(-c3ccc(F)cc3)nn2)C[C@@H]1c1ccccc1	?
O=C1Nc2cccc(Br)c2[C@@]12O[C@H](COc1ccccc1)CC1=CCCC12 (stereo partly drawn)	?
C=CCN1C(=O)[C@@]2(CC(C)=CC[C@@H](C)O2)c2ccccc21	?
C[C@@H]1C=CCC(=O)N[C@@H](c2cccc(Br)c2)[C@H](C)C=CCC(=O)N[C@@H]1c1cccc(Br)c1	?
O[C@H]1C[C@H](c2ccccc2)N(Cc2cccs2)C[C@H]1n1cc(-c2ccc(F)cc2)nn1	?
COc1ccc2c(c1)C[C@@H](C)O[C@]21C(=O)Nc2ccccc21	70.8%[14.2 µM]
COC(=O)C1(C(=O)OC)CC=CCc2ccccc2[C@H]1C[N+](=O)[O-]	3.3%[14.2 µM]
CC(C)[C@@H](OCc1ccccc1)[C@H](C)C=NO[C@H](C)c1cn([C@@H]2COC[C@@H]2O)nn1	-6.3%[14.2 µM]
COc1ccc([C@@H]2NC3=C(CCC3)[C@@]3(C#N)C(OC)(OC)N=C(N)[C@]23C#N)cc1	-6.2%
CCCC=CC1C(=O)[C@@H]2O[C@H]2C2(OCC(CC)(CC)CO2)C1CO (stereo partly drawn)	-11.4%[14.2 µM]
CC(C)c1ccc(Oc2cccc3c2S(=O)(=O)N([C@H](C)c2ccccc2)C[C@@H](COCc2ccccc2)O3)cc1	?
C[C@@H]1C(c2ccccc2)=CC(=O)c2nc3ccccc3cc2[C@@H]1C(=O)N1CCCC1	-10.4%[14.2 µM]
CC12C=C(C=Cc3ccccc3)C(C)(C1)C(c1ccccc1)CC2=O (stereo not drawn)	-4.1%[14.2 µM]
C=COCCN1C=C(C(=O)OCC)C(c2ccccc2)NC1=O (stereo not drawn)	?
O=C(C=Cc1ccccc1)Nc1cccc(C(=O)NC2CC2)c1	?
CCN(CC)CCCn1c(C)cc2c(c1=O)[C@H](c1ccc(OC)c(OC)c1OC)C(C#N)=C(N)O2	8.9%
Cc1nc(S[C@@H]2C=CS(=O)(=O)C2)n[nH]1	0.1%
COCC=CC1=CC2=CC(=O)C(C)(OC(=O)c3cnc4ccccc4n3)C(=O)C2=CN1C1CC1 (stereo not drawn)	?
O=C1[C@H]2[C@H]3[C@H](O)[C@H](O)C/C(=N\OCc4ccccc4)[C@H]3CC[C@H]2C(=O)N1C[C@@H]1CCCO1	-6.8%[14.2 µM]
CC(C)[C@@H](OCc1ccccc1)[C@H](C)CON=C1[C@H]2CCn3c(=O)n(-c4ccccc4)c(=O)n3[C@@H]2[C@H](O)[C@@H]2O[C@H]12	24.7%[14.2 µM]
COCC=CC1=CC2=CC(=O)C(C)(OC(=O)c3cnc4ccccc4n3)C(=O)C2=CN1CC(C)C (stereo not drawn)	?
COc1cccc([C@@H]2Oc3ccc(OC)cc3C(=O)[C@@H]2OC(=O)Nc2cc(OC)c(OC)c(OC)c2)c1	12.9%[14.2 µM]
C#CCCCO/N=C1\C[C@@H](O)[C@@H](O)[C@@H]2[C@@H]3C(=O)N(c4ccc(F)cc4F)C(=O)[C@@H]3CC[C@@H]12	-8.0%[14.2 µM]
CC(=O)OC[C@@H]1O[C@H](C/C=N\OCC[C@H]2C=C[C@H](OC(C)=O)[C@@H](COC(C)=O)O2)C=C[C@@H]1OC(C)=O	10.3%[14.2 µM]
Cc1ccc([C@H]2/C(=C(\O)c3cnn(-c4ccccc4)c3C)C(=O)C(=O)N2CCN2CCOCC2)o1	9.9%
COc1cc([C@@H](O)CO)ccc1OS(=O)(=O)O	?
C[C@@H]1C=CCCO[C@]12C(=O)N(CC1CC1)c1ccccc12	?
COc1ccc(COC(=O)N/N=C2\C[C@@H](O)[C@@H](O)[C@@H]3[C@@H]4C(=O)N(C[C@@H]5CCCO5)C(=O)[C@@H]4CC[C@@H]23)cc1	?
COC[C@@H](OC(C)=O)[C@H]1OCc2ccccc2[C@H]1C=Cc1ccccc1	1.3%[14.2 µM]
CCOC(=O)C1=C(C)NC(=O)N[C@H]1c1ccc2c(c1)OCO2	6.9%[46.1 µM]
CC(=O)OC[C@H]1O[C@H](CCON=C(C)CCN2CCCCc3nc(C)c(C)cc32)C=C[C@H]1OC(C)=O	16.2%[14.2 µM]
COC(=O)C/C=C/C(C)C(OC)c1ccccc1Br (stereo not drawn)	-10.5%[14.2 µM]
O=C1[C@@H]2[C@H]3[C@H](O)[C@H](O)CC(=NOC[C@@H](O)COCc4ccco4)[C@@H]3CC[C@H]2C(=O)N1C1CCCCC1	-22.0%[14.2 µM]
COC(=O)N1C2=C(c3ccccc3[C@@H]1CC(=O)O)[C@@H]1O[C@@H](C2)c2ccccc21	?
O=C(O)CSC1=c2ccccc2=NC1c1cccs1 (stereo not drawn)	8.1%
CC(=O)Oc1ccccc1[C@@H]1OCCN1C(C)=O	1.9%
COCOc1cc(OC)ccc1C(=O)/C=C\c1ccc2c(c1)OCO2	-29.3%[14.2 µM]
COCCN1C(=O)NC(c2cccc(F)c2)C(C(=O)OC)=C1C (stereo not drawn)	1.2%[14.2 µM]
COC(=O)C/C=C/[C@@H](C)[C@@H](/C=N/OC[C@@H](O)COCc1ccco1)NS(=O)(=O)c1ccc(C)cc1	20.9%[14.2 µM]
CCOC(=O)CN1C(=O)[C@@]2(CC(C)=CC[C@@H](COc3ccccc3)O2)c2c(Br)cccc21	-34.9%[14.2 µM]
C=C[C@@]1(C)CC(=O)[C@@]2(O)[C@@]3(C)[C@H](O)CCC(C)(C)[C@@H]3[C@H](O)[C@H](OC(C)=O)[C@]2(C)O1	-28.7%
C/C(=N/O)C(=O)NCCCNCCCN(C)C	4.9%[46.1 µM]

New compounds follow
SMILES	Marburg entry inh
Cc1nc2c(o1)CCc1ccccc1[C@H]2O	11.1%
C=C(C)[C@@H]1CC2=C(OC)C(CC=C(C)C)(CC=C(C)C)C(=O)C(C(=O)c3ccccc3)=C2O1	-15.3%[14.2 µM]
O[C@H](CC#CCOc1ccccc1)COCc1ccccc1	?
CCOC(=O)N/N=C1/C[C@@H](O)[C@@H](O)[C@@H]2[C@@H]3C(=O)N(C4CCCCC4)C(=O)[C@H]3CC[C@H]12	-24.9%[14.2 µM]
COC(=O)C1=C(C)N(Cc2ccccc2)C(=NCCc2cccs2)NC1c1cccc(C(F)(F)F)c1 (stereo not drawn)	?
CCCCCCCC1=Cc2ccccc2C(CC(=O)c2ccccc2)N1C(=O)OC (stereo not drawn)	?
CCN1C(=NCc2cc(OC)c(OC)c(OC)c2)NC(c2cccc(F)c2)C(C(=O)OC)=C1C (stereo not drawn)	?
CCCCN(C(=O)CCC(=O)O)[C@H]1CC(=O)N(c2ccc(OCCC)cc2)C1=O	3.9%
Cc1cccc2c1N[C@H](C)C[C@@H]2C	6.9%
O=C1C(=O)N(Cc2cccnc2)[C@@H](c2ccccn2)/C1=C(/O)c1ccc(F)cc1	22.4%
C=CCN1c2ccccc2[C@]23CCC(=O)N(Cc4ccco4)C2=NC(C(=O)OC)=C(C(=O)OC)[C@H]13	-1.4%[14.2 µM]
CCOC(=O)[C@]12C[C@@H]3CCN(C(=O)N(C(C)=O)[C@@H]1c1ccccc1)[C@@H]32	-9.4%[14.2 µM]
CC(C)CO/N=C1\C[C@@H](O)[C@@H](O)[C@@H]2[C@@H]3C(=O)N(C4CCCCC4)C(=O)[C@@H]3CC[C@@H]12	-13.9%[14.2 µM]
COC(=O)C(/C=C/C(C)Cc1cc(Br)cc(OCc2ccccc2)c1OC)OCc1ccccc1 (stereo not drawn)	-15.1%[14.2 µM]
COC[C@H]1CCCN1[C@H]1C[S+](=O)([O-])N[C@H]1COCc1ccccc1	?
CC(C)=CCCC(C)=CCON=C1C[C@@H](O)[C@@H](O)[C@@H]2[C@H]3C(=O)N(c4cccc(Oc5ccccc5)c4)C(=O)[C@@H]3CC[C@H]12	26.1%[14.2 µM]
O=C(OCc1cn([C@@H]2CN(C(=O)C3CCCCC3)[C@@H](c3ccccc3)C[C@@H]2O)nn1)c1ccccc1	?
CC(=O)C1=C(O)C(=O)N(c2cccc(C(=O)O)c2)[C@@H]1c1ccc(F)cc1	25.3%
CC(C)c1nc(NC[C@H]2CCCO2)c(C#N)c2c1COC(C)(C)C2	-28.1%
COc1cccc(CNCCC2=C3C=CC=CC3N=C2)c1 (stereo not drawn)	11.2µM*
O[C@]1(c2ccc(F)cc2)CCNC1	-7.0%
C[C@@H]1C=CCC(=O)OC[C@H](C)C(=O)OC[C@H]2O[C@H]1C=C[C@H]2O	-13.6%&-13.6%[14.2 µM]
O=S(=O)(c1ccccc1)N(C[C@@H](O)CN1CCCCC1)c1ccccc1	-10.2%[46.1 µM]
Cn1c(=O)c2c(nc(NC[C@@H](O)CO)n2CCc2ccccc2)n(C)c1=O	-6.8%
COc1ccc(/C=C/N(CCc2ccc(OC)c(OC)c2)C(=O)c2ccccn2)cc1	-10.7%[14.2 µM]
CC(C)CO/N=C1/C[C@@H](O)[C@@H](O)[C@@H]2[C@@H]3C(=O)N(Cc4ccc5c(c4)OCO5)C(=O)[C@H]3CC[C@@H]12	?
CCc1cc2c(nc1CC)CCN(CC/C(C)=N/OC[C@@H](O)[C@H]1O[C@@H]3OC(C)(C)O[C@@H]3[C@H]1O)C2	-6.4%[14.2 µM]
CC1(C)NCCN2C(=O)CS[C@H]21	15.8%[46.1 µM]
C[C@H]1CCCC(=O)N[C@@H](c2ccccc2)[C@@H](C)CCCC(=O)N[C@@H]1c1ccccc1	?
CC1=C[C@H]2c3ccccc3C[C@H]2CO[C@]12C(=O)N(Cc1ccc(Br)cc1)c1ccccc12	?

Sorted by length of the SMILES (falling): 16 of the compounds above.
SMILES	Marburg entry inh
CC(C)=CCCC(C)=CCON=C1C[C@@H](O)[C@@H](O)[C@@H]2[C@H]3C(=O)N(c4cccc(Oc5ccccc5)c4)C(=O)[C@@H]3CC[C@H]12	26.1%[14.2 µM]
CC(C)CO/N=C1\C[C@@H](O)[C@@H](O)[C@@H]2[C@@H]3C(=O)N(C4CCCCC4)C(=O)[C@@H]3CC[C@@H]12	-13.9%[14.2 µM]
CCc1cc2c(nc1CC)CCN(CC/C(C)=N/OC[C@@H](O)[C@H]1O[C@@H]3OC(C)(C)O[C@@H]3[C@H]1O)C2	-6.4%[14.2 µM]
O=C(OCc1cn([C@@H]2CN(C(=O)C3CCCCC3)[C@@H](c3ccccc3)C[C@@H]2O)nn1)c1ccccc1	?
C[C@H]1CCCC(=O)N[C@@H](c2ccccc2)[C@@H](C)CCCC(=O)N[C@@H]1c1ccccc1	?
CC1=C[C@H]2c3ccccc3C[C@H]2CO[C@]12C(=O)N(Cc1ccc(Br)cc1)c1ccccc12	?
C[C@@H]1C=CCC(=O)OC[C@H](C)C(=O)OC[C@H]2O[C@H]1C=C[C@H]2O	-13.6%&-13.6%[14.2 µM]
COC(=O)C(/C=C/C(C)Cc1cc(Br)cc(OCc2ccccc2)c1OC)OCc1ccccc1 (stereo not drawn)	-15.1%[14.2 µM]
CC(=O)C1=C(O)C(=O)N(c2cccc(C(=O)O)c2)[C@@H]1c1ccc(F)cc1	25.3%
COC[C@H]1CCCN1[C@H]1C[S+](=O)([O-])N[C@H]1COCc1ccccc1	?
Cn1c(=O)c2c(nc(NC[C@@H](O)CO)n2CCc2ccccc2)n(C)c1=O	-6.8%
O=S(=O)(c1ccccc1)N(C[C@@H](O)CN1CCCCC1)c1ccccc1	-10.2%[46.1 µM]
CC(C)c1nc(NC[C@H]2CCCO2)c(C#N)c2c1COC(C)(C)C2	-28.1%
COc1cccc(CNCCC2=C3C=CC=CC3N=C2)c1 (stereo not drawn)	11.2µM*
CC1(C)NCCN2C(=O)CS[C@H]21	15.8%[46.1 µM]
O[C@]1(c2ccc(F)cc2)CCNC1	-7.0%

Source: PubChem BioAssay (National Center for Advancing Translational Sciences (NCATS))

Some of the compounds tested, so the mix of outcomes need not match the whole.
